VACV Venus inh: inhibitors of vaccinia virus (Venus reporter); Vaccinia virus Venus reporter expression, fluorescence; Potency, µM (titrated, usually from 36.5 µM), inactives show at the top dose activity change, negative = inhibition, usual class: inhibitors; 0.46% of 330,000 active; AID 720580; active means well fitted inhibition curve with a large enough effect; inconclusive means small, poorly fitted or top-dose-only effect; inactive means no such curve, though single readings can be large or run the other way; tested in A549 cells; further: nearly all actives have a fitted effect of over 30% in size; inactives centre near -10
Vaccinia mCherry: vaccinia inhibition (mCherry reporter); Vaccinia virus mCherry reporter infection, fluorescence; about a quarter of the inactives have no number; Potency, µM (series often up to 36.5 µM), for inactives: at the highest dose activity change, negative = inhibition, most hits filed as inhibitors; 0.63% of 310,000 active; active = well fitted inhibition curve with a large enough effect; inconclusive = small, poorly fitted or top-dose-only effect; inactive = no such curve, though single readings can be large or run the other way; tested in A549 cells; further: nearly all actives have a fitted effect of over 35% in size; inactives centre near -10
* = called active by the depositor; i = inactive; ? = inconclusive; . = not tested or not shown; & = joins results of further samples; [ ] = dose if it differs, or a comment. On the % scale 0 is the no-effect control and ±100 the full control effect; potency means the concentration at half of the fitted maximal effect.

The opening 7 records, ahead of the listing:
SMILES | VACV Venus inh | Vaccinia mCherry
COC(=O)CCCC(=O)NC1CC(C)(C)Cc2c1cnn2-c1ccc(C)cc1 (centres undefined) | -5.1% | -16.5%
CC(OC(=O)c1ccc(S(=O)(=O)NCc2ccco2)cc1)C(=O)Nc1ncc(Cl)cc1Cl (centres undefined) | -16.7% | -17.4%
Cc1n[nH]c(C)c1CCc1nc2c3ccccc3nc(SCC(=O)Nc3ccc(F)cc3)n2n1 | -17.0% | -23.1%
CCCN(CC1CC1)c1cc2c(c3c1ccn3C)C1CCC2C1 (centres undefined) | -1.5% | i
O=c1nc(-c2ccccc2)cc(-c2ccccc2)[nH]1 | -11.8% | -13.4%
Cc1nc(SCC(=O)NCc2ccco2)c2c3c(sc2n1)CCCC3 | ? | .
COc1cccc(CNC(=O)CN2C(=O)COc3ccc(S(=O)(=O)N4CCCCCC4)cc32)c1 | -5.5% | -10.0%

All compounds of this part, from the start:
SMILES | VACV Venus inh | Vaccinia mCherry
COC(=O)CCCC(=O)NC1CC(C)(C)Cc2c1cnn2-c1ccc(C)cc1 (centres undefined) | -5.1% | -16.5%
CC(OC(=O)c1ccc(S(=O)(=O)NCc2ccco2)cc1)C(=O)Nc1ncc(Cl)cc1Cl (centres undefined) | -16.7% | -17.4%
Cc1n[nH]c(C)c1CCc1nc2c3ccccc3nc(SCC(=O)Nc3ccc(F)cc3)n2n1 | -17.0% | -23.1%
CCCN(CC1CC1)c1cc2c(c3c1ccn3C)C1CCC2C1 (centres undefined) | -1.5% | i
O=c1nc(-c2ccccc2)cc(-c2ccccc2)[nH]1 | -11.8% | -13.4%
Cc1nc(SCC(=O)NCc2ccco2)c2c3c(sc2n1)CCCC3 | ? | .
COc1cccc(CNC(=O)CN2C(=O)COc3ccc(S(=O)(=O)N4CCCCCC4)cc32)c1 | -5.5% | -10.0%
CCOc1cc(C(=O)NC(C)C2CCCO2)cc(OCC)c1OCC (centres undefined) | -9.3% | i
Cc1nn(-c2ccccc2)c(Cl)c1C(=O)OC(C)C(=O)Nc1ccc2c(c1)OCO2 (centres undefined) | -9.6% | -14.4%
CN1CCN(c2nc(C(N)=O)cc(-c3ccccc3)n2)CC1 | -10.4% | -13.1%
COc1cc(/C=C(\NC(=O)c2ccccc2)C(=O)Nc2cccc(O)c2)c([N+](=O)[O-])cc1OC | -13.5% | .
COc1ccc(CNC(=O)C(=O)NC2CC(C)(C)NC(C)(C)C2)cc1 | -0.4% | -0.6%
Cc1ccc(C)c(NC(=O)c2nc(S(C)(=O)=O)ncc2N(Cc2ccc(C(C)(C)C)cc2)Cc2ccco2)c1 | -4.9% | -12.1%
COCCN1C(=O)COc2ccccc2C1C(=O)NC1CCCC1 (centres undefined) | 6.4% | 1.1%
Cc1sc(N/N=C/c2ccco2)nc1-c1ccccc1 | -22.4% | -9.6%
Cc1ccc(C)c2c(N)c3c(nc12)CCCCC3 (tested in a mixture with another compound) | -10.5% | -26.5%
COc1ccc(C(=O)NCCS(=O)(=O)N(C)C2CCCCC2)cc1 | -2.8% | -12.5%
CCOC(=O)C1=NOC(COc2ccccc2C=O)C1 (centres undefined) | 3.3% | 2.6%
COc1ccccc1CNC(=O)CN1C(=O)c2cccnc2Oc2ccccc21 | -15.1% | -9.0%
Cc1cccc(-n2c(=O)c3c(C)c(C)sc3n(CC(N)=O)c2=O)c1 | 17.6% | -4.8%
CCOC(=O)c1sc(NC(=O)Nc2ccccc2)cc1C | 12.6µM* | 15.8µM*
CCOC(=O)C1=C(C)NC(=O)NC1c1ccc(-c2ccc(Cl)cc2)o1 (centres undefined) | -19.2% | -18.0%
COC(=O)c1ccc(CSc2nc3c([nH]c4ccccc43)c(=O)n2-c2cccc(Cl)c2)o1 | -9.8% | -0.8%
COc1ccccc1CCNC(=O)C(=O)NCC(c1cccnc1)N1CCN(c2ccccc2)CC1 (centres undefined) | -28.9% | -28.1%
C[C@H](CO)N1C[C@H](C)[C@@H](CN(C)Cc2ccc(-c3ccccc3)cc2)Oc2c(NS(=O)(=O)c3ccccc3)cccc2C1=O | ? | -24.3%
Cc1nn(C)c(C)c1S(=O)(=O)N(CC(=O)Nc1ccc(F)cc1F)c1ccc(C(C)C)cc1 | -13.3% | -15.3%
COCc1c(C(=O)N/N=C(\C)c2ccc(Cl)s2)nnn1-c1nonc1N | -9.2% | -14.1%
CCn1c2ccccc2c2cc(NC(=O)c3cccc([N+](=O)[O-])c3)ccc21 | -28.8% | -22.4%
Cn1c(=O)c(=O)n(C)c2cc(S(=O)(=O)N3CCCC3C(=O)Nc3ccccc3F)ccc21 (centres undefined) | 3.0%&-8.2% | -13.0%&-14.6%
Cc1cc(C)c(CN2CCC(n3nccc3NC(=O)C3CCOC3)CC2)cc1C (centres undefined) | -16.7% | -16.4%
COc1ccc2nc(NC(=O)CCN3C(=S)NC(C)(C)CC3C)sc2c1 (centres undefined) | -1.6% | -14.1%
CCOc1ccc(-c2noc(CCC(=O)NCCc3ccccc3)n2)cc1OC | -14.5% | i
CCC(=O)Nc1nc(-c2ccc3c(c2)CC(C)N3S(C)(=O)=O)cs1 (centres undefined) | -20.8% | i
c1cc(CNc2ccc(N3CCOCC3)cc2)ccn1 | -1.5% | .
COc1ccccc1CC(=O)Nc1cccc2ccccc12 | -9.5% | i
CC1(C(=O)Nc2cccc3ncccc23)CCN1C(=O)CCc1ccccc1 (centres undefined) | -5.0% | -17.4%
Cc1ccnc(NC(=O)Nc2ccc(F)cc2)c1 | -11.7% | .
COc1ccc(C(=O)Nc2ccc(-c3ccc(NC(=O)c4ccc(OC)cc4)c(OC)c3)cc2OC)cc1 | -13.9% | 1.1%
COc1ccc([N+](=O)[O-])cc1NC(=O)Cc1noc2ccccc12 | -11.7% | -6.4%
O=C(Cn1nnc(-c2ccc(CN3CCOCC3)cc2)n1)N(c1ccccc1)c1ccccc1 | -23.0% | -13.3%
CCOc1ccccc1C1C(C(N)=O)=C(C)Nc2nc(-c3ccccc3Cl)nn21 (centres undefined) | -3.7% | -9.9%
CC(C)(C(=O)N1CCC1(C)C(=O)NS(=O)(=O)c1ccc(C#N)cc1)c1ccccc1 (centres undefined) | -5.4% | i
CCOC(=O)[C@]12CCC=C1N(Cc1cccc3ccccc13)C(=O)[C@H](CC(=O)N1CCOCC1)C2 | -0.8% | 21.4%
CN(C(=O)c1ccc(NC(=O)Cc2ccc(NC(=O)C3CCCN(C(=O)C4CCCC4)C3)cc2)cc1)C1CC1 (centres undefined) | -5.1% | -28.2%
O=C(Nc1ccc(N2CCN(Cc3ccccc3)CC2)cc1)c1cccnc1 | -14.0% | .
CCOc1ccc(CNCc2c(C(=O)O)c(C)n(Cc3ccc(F)cc3Cl)c2C)cc1 | -8.2% | -13.5%
CCN1C(=O)C2C(C1=O)N1C(c3ccccc3)C3C(=O)N(CC)C(=O)C3N1C2c1ccccc1 (centres undefined) | 2.0% | -3.8%
CN=C1CC(C)(C)CC(=O)/C1=C(/O)CCC(=O)NC | -4.2% | -13.2%
CC(=O)Nc1cccc(-c2ccnc3c2CC(C(=O)NCc2ccco2)O3)c1 (centres undefined) | ? | -10.4%
COc1ccc(C2=C(C)C(N3CCN(C(=O)c4ccco4)CC3)=NS2(=O)=O)cc1 | -10.0% | i
CC1=NN(c2ccccc2)C(=O)/C1=C/C=C/c1ccccc1 | 5.8% | -7.9%
O=C1NCCCCC1NC1CC(=O)N(c2ccccc2)C1=O (centres undefined) | -2.7% | .
CC1=C(C(=O)NCc2ccccc2C)C2(CCCCC2)OC1=O | -5.1% | -1.9%
COC(=O)[C@]1(C)N[C@H](CN(C)C(=O)C2CCCCC2)[C@@H]2C(=O)N(C)C(=O)[C@@H]21 | -9.5% | -0.5%
O=C(O)CNC(=O)c1ccc(NC(=O)/C(=C/c2ccccc2)NC(=O)c2ccccc2)cc1 | -6.7% | i
CC(C)C[C@H](NC(=O)[C@@H](O)[C@H](N)Cc1ccccc1)C(=O)O | -5.8%[60.7 µM] | -11.1%[60.7 µM]
Cc1ccc(-c2nnc(NC(=O)c3c(F)cccc3Cl)s2)cc1 | -18.6% | i
CCN1C(=O)[C@H]2[C@H]3CN=C(SCc4ccc(C)cc4)N3[C@@](Cc3ccccc3)(C(=O)OC)[C@H]2C1=O | -20.9% | i
CCc1ccc2oc(-c3cccc(N)c3)nc2c1 | -13.9% | -21.4%
CCOC(=O)/C=c1\s/c(=C(\C#N)C(=O)OCC)n(-c2ccccc2)c1=O | 100.7%[activator] | 109.5%[activator]

Additional compounds.
SMILES | VACV Venus inh | Vaccinia mCherry
CCOC(=O)c1cccc(S(=O)(=O)N(CCO)Cc2cc3cc(OC)c(OC)cc3[nH]c2=O)c1 | -8.4% | -15.4%
O=C1[C@H]2[C@@H](c3ccc(Cl)cc3)N3C(=O)N(c4cccc(Cl)c4)C(=O)[C@@]3(Cc3ccc(Cl)cc3)[C@H]2C(=O)N1C1CCCCC1 | -18.4% | -2.0%
Cc1ccc(CSCC(=O)N(C)CC(=O)Nc2ccc(C)cc2)cc1 | -5.5% | i
CCCCCn1c(C(C)NC(=O)c2ccccc2)nc2ccccc21 (centres undefined) | -7.9% | -17.9%
CCn1c(COc2ccc(C)cc2)nc2ccccc21 | -16.1% | i
O=C(Nc1ccccc1)NN1CC(=O)N(c2ccc(Cl)cc2)CC1=O | -6.8% | -16.3%
Cc1ccc(S(=O)(=O)c2nc(-c3ccccc3F)oc2N2CC(C)OC(C)C2)cc1 (centres undefined) | -6.5% | -10.6%
CN1CCN(C(=O)/C(=C/c2ccc(F)cc2)NC(=O)c2ccccc2)CC1 | -2.8% | -6.3%
O=C(C(Cl)Cl)N1CC2CCC(CC2)C1 | -7.1% | -23.0%
COc1ccc(N2CC(C(=O)N[C@@H](CC(C)C)C(=O)NC3CCCCC3)CC2=O)cc1 (some centres undefined) | -10.1% | -9.5%
COc1ccc(NC(=O)c2cc3c(C)nn(-c4ccccc4)c3s2)c(OC)c1 | -7.8% | -16.4%
CCCn1nc(NC(=O)C2CCCO2)c2cc3cccc(C)c3nc21 (centres undefined) | -22.7%[7.34 µM] | ?
O=C(Nc1ccc(Cl)cc1N1CCOCC1)C1CCCO1 (centres undefined) | -1.3% | -13.3%
CCCCOC(=O)CCn1c(=S)oc2ccccc21 | -12.5% | .
O=C(Nn1cnnc1)c1ccc(Cl)c([N+](=O)[O-])c1 | 10.8% | -8.4%
O=C(Nc1nc(-c2ccc(S(=O)(=O)N3CCCCCC3)cc2)cs1)c1cccs1 | -29.9% | -2.1%
CC(C)NC(=O)C1(C)CN(S(C)(=O)=O)CC(=O)N1Cc1cccc(F)c1 (centres undefined) | -4.2% | -9.8%
O=C(CN1CCN(c2ccccn2)CC1)NC1CCCCC1 | -15.3% | .
O=C(NCC1CCCN1S(=O)(=O)c1cccs1)C(=O)Nc1ccccc1F (centres undefined) | -15.3% | i
COc1ccc(CN2CCN(C3CCOCC3)CC2CCO)c(C)c1C (centres undefined) | -7.6% | -3.2%
CCCCC(=O)Nc1ccc2c(c1)nc(CCN1CCN(C)CC1)n2C | 11.2% | -18.1%
COc1ccc(S(=O)(=O)N2CCC(NC(=O)N3CCOCC3)CC2)cc1 | -11.5% | -5.0%
Cc1occc1C(=O)NC1CCCCCC1 | -10.1% | .
Cc1c(Cl)cccc1NC(=O)CCn1cnnn1 | 6.7% | -2.8%
CCOC(=O)c1cccc(NC(=O)CCc2nnc3ccc(N4CCN(C)CC4)nn23)c1 | -12.1% | -0.1%
Cc1cc(C)cc(N2CCn3c2nc2c3c(=O)n(Cc3c(F)cccc3Cl)c(=O)n2C)c1 | -17.2% | -1.5%
O=C(COC(=O)CN1C(=O)C2CCCCC2C1=O)Nc1ccc(S(=O)(=O)N2CCOCC2)cc1 (centres undefined) | 8.3% | -11.8%
Cc1c(-c2cc(Br)ccc2O)nc2cc3c(cc2c1C)OCO3 | -2.5% | ?
CC(C)c1cc(C(=O)N2CCCC(N3CCN(c4ccc(F)cc4)CC3)C2)no1 (centres undefined) | -5.8% | -37.3%
O=C(CC1SC(N2CCCCC2)=NC1=O)Nc1cccc(C(=O)NCc2ccc(F)cc2)c1 (centres undefined) | -10.9% | -19.4%
Cc1sc2c(c1C)c(=O)n(CCc1ccccc1)c(=O)n2Cc1ccccc1Cl | -3.1% | -13.6%
C=CCn1c(CSc2nnc(-c3ccccc3)n2C)n[nH]c1=S | -1.2%[7.34 µM] | -23.6%[7.34 µM]
CCn1c(C)[n+](CCCS(=O)(=O)[O-])c2cc(Cl)c(Cl)cc21 | -10.9% | -16.5%
CCOc1ccccc1NC(=O)c1cc2c(=O)n(Cc3cccnc3)ccc2nc1C | -11.9% | -6.0%
COc1ccc(C(=O)NCCOc2cccc(Oc3ccccc3)c2)cc1OC | -27.1% | ?
CC(=O)Nc1cccc(-c2ccnc3c2CC(C)(C(=O)Nc2ccccc2)O3)c1 (centres undefined) | -11.9% | ?
CC(C)(C)c1ccc(Cc2n[nH]c(=S)[nH]c2=O)cc1 | -18.5% | -14.6%
CC1(C(=O)O)Sc2[nH]c(=O)sc2C2c3ccccc3OC(=O)C21 (centres undefined) | 0.5% | -9.1%[1.46 µM]
CCC(=O)N1CCC(C)(C(=O)Nc2ccc(OC)c(OC)c2)C1 (centres undefined) | -0.3% | 6.4%
O=C(Nc1cccc(C(=O)O)c1)Nc1ccc2c(c1)OCO2 | -7.3% | i
O=C(COc1ccccc1Cl)NCCCN1CCOCC1 | 4.3% | -0.6%
N#Cc1ccccc1Cn1cc(C(=O)c2cccs2)c2ccccc21 | -19.7% | i
COc1cc(=O)n2c(c1C(=O)N(C)Cc1nonc1C)CCN(Cc1ccsc1)CC2 | 4.8% | -16.6%

Source: PubChem BioAssay
